gsp ag = agonists of gsp mutant (McCune-Albright syndrome); gsp mutant cells, cAMP HTRF, 30 min; control for the full effect not named in the record; Potency, µM (series often up to 76.9 µM), for inactives: top-dose activation (cAMP increase), most hits filed as activators; hit rate 0.13% among 340,000; AID 624287; active = well fitted activation curve with a large enough effect; inconclusive = small, poorly fitted or top-dose-only effect, or another doubt; inactive = no such curve, though single readings can be large or run the other way; cell line not stated here;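 further: phosphodiesterase inhibitor Ro 20-1724 added with compounds to block cAMP breakdown; potency means the concentration at half of the fitted maximal effect; nearly all actives have a fitted effect of over 60% in size; about a fifth of the inactives were tested at one dose only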
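Cells stably selected in G418 were plated at 2000/well, grown 16-24 hr, then given compounds in DMSO with the PDE inhibitor […] (300 uM solution added) for 30 min at 37C; cAMP was read by HTRF.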
gsp antag = gsp mutant antagonism; gsp-mutant cells, cAMP HTRF, 30 min; control for the full effect not named in the record; AID 624288; Potency, µM (highest dose often 76.9 µM), for the others: at the highest dose activity change, negative = inhibition, hits mostly inhibitors; hit rate 0.4% among 340,000; active = falling curve of any shape with a large fitted effect; inconclusive = falling curve, mostly with a smaller effect; inactive = flat or rising curve; cell line not stated here;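 further: intracellular cAMP measured with PDE inhibitor Ro 20-1724 present during compound exposure; potency means the concentration at half of the fitted maximal effect; on the % scale 0 is the no-effect control and ±100 the full control effect; nearly all actives have a fitted effect of over 65% in size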
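Cells, 2000/well, grown 16–24 h in DMEM 10% FBS with 0.5 mg/ml G418, then compounds plus […] (300 uM addition stock), 30 min at 37C. cAMP read by HTRF (cAMP-d2 and anti-cAMP antibody-K in lysis buffer) after 30 min RT.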
Sfp inh = Sfp phosphopantetheinyl transferase inhibition; Q9F4F7; Biochemical Sfp PPTase activity, qHTS; Potency, µM, inactives show max response, negative = inhibition, actives largely listed as inhibitors; hit rate 3.5% among 310,000; active means well fitted inhibition curve with a large enough effect; inconclusive means small, poorly fitted or top-dose-only effect, or another doubt; inactive means no such curve, though single readings can be large or run the other way;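 further: the enzyme is Sfp with the accession as filed and its product quenches rhodamine fluorescence; potency means the concentration at half of the fitted maximal effect; 0% = enzyme reaction without inhibitor and -100% = no enzyme wells; top concentration of the series not given in the record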
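After 15 min at room temperature with compound, 15 nM Sfp received 5 uM rhodamine-CoA plus 12.5 uM BHQ-2-ybbR (50 mM Hepes pH 7.6, 10 mM MgCl2). Rate came from the fluorescence difference over 30 min, ex 525/em 598 nm.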
CtBP-E1A inh = blocks the CtBP interaction with E1A. AlphaScreen GST-E1A/His-CtBP binding, 1536-well; stronger effect = lower value; control for the full effect not named in the record. activity change, % (concentration not given with the values). hit rate 0.49% among 340,000; in the data active means activity change below about -65%; inconclusive means about -30% to -65%; inactive means above about -30%; further: on the % scale 0 is the no-effect control and ±100 the full control effect
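GST-E1A and His-tagged CtBP (125 nM each as 5X stock) were preincubated with pin-transferred compound for 2 h at 37 °C in the dark, then glutathione donor and nickel acceptor beads were added for 1 h before AlphaScreen reading.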
Menin MLL FP FL = displaces fluorescein MLL peptide from human menin; Fluorescence polarization, fluorescein-MLL peptide displacement from menin; FP activity change, % at 61.4 µM; 290,000 tested, under 10 active; inconclusive = falling polarisation curve, or a change in total fluorescence; inactive = total fluorescence flat and polarisation flat or rising; no compound was filed as active; the % refers to the polarisation; negative = inhibition;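 further: % of control where 0% means no effect; inhibitors lower the polarisation; unlabelled MLL peptide was the positive control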
TRPV1 PAM = enhances activation of the human vanilloid receptor TRPV1 | Q8NER1 | hit rate 0.02% among 320,000 | AID 540277 | potentiation, % at 8.33 µM | TRPV1-expressing cells, Fluo-8 calcium influx, capsaicin EC20 potentiation; host cell line not named in the record; control for the full effect not named in the record; active means potentiation above 80%; inconclusive means 30% to 80%; inactive means below 30%; further: 0% is about no effect
Target sequence (Q8NER1 whole entry, looked up): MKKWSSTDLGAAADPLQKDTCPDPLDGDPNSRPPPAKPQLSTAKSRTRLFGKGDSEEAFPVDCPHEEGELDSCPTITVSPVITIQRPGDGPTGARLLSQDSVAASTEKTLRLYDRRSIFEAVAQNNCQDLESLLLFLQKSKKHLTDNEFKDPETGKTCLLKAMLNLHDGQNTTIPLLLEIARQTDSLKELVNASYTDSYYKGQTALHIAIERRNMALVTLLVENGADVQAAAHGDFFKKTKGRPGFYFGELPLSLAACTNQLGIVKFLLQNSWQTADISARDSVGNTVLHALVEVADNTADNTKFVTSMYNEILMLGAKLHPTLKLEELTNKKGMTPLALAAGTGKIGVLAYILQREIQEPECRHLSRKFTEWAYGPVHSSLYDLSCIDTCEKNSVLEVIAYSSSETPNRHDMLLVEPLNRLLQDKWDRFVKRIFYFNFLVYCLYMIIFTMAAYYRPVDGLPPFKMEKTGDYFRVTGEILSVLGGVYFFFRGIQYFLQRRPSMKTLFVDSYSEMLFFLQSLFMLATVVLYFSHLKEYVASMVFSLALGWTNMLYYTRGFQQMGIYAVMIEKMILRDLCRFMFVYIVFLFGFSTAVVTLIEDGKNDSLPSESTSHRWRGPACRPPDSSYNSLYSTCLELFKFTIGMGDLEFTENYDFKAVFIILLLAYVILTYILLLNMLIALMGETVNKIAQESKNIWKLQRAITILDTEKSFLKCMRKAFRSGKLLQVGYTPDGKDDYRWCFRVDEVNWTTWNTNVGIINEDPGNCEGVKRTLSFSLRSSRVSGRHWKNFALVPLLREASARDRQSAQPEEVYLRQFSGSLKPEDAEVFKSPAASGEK
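Fluo-8 calcium influx in TRPV1-expressing cells, kinetic read (ex 480/em 520 nm). Compound added and read 3 min for agonist activity, followed by capsaicin at EC20 final and 2 min further read for enhancement.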
ClpP mod = qHTS Assay for Activators of ClpP; ATP-dependent Clp protease proteolytic subunit (Bacillus subtilis (strain 168)), P80244; purified B. subtilis ClpP, FRET peptide cleavage, 20 min; Potency, µM (top dose mostly 57.5 µM), for the others: at the highest dose activity change, negative = active; hit rate 1.9% among 340,000; AID 651965, 2013; active = well fitted falling curve with a large enough effect; inconclusive = small, poorly fitted or top-dose-only effect; inactive = no such curve, though single readings can be large or run the other way; further: potency means the concentration at half of the fitted maximal effect; the source files actives as falling curves though it sought activators and does not explain the sign; nearly all actives have a fitted effect of over 65% in size; many hits overshoot -100%
Target sequence (P80244 whole entry, looked up): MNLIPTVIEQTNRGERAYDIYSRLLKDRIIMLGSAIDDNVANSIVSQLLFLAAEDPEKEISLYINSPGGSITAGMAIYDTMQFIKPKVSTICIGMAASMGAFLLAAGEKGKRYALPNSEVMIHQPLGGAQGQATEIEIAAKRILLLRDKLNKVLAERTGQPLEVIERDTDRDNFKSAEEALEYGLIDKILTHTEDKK
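Purified B. subtilis ClpP, 10 microg/mL final in Tris/HCl pH8 with KCl, BSA, glycerol and Tween-20, cleaved an Abz/nitrotyrosine-quenched decapeptide. Fluorescence (ex 320, em 430) was read at 0 and 20 min at room temperature. Delta was normalized to 5.8 microM ADEP and DMSO/no-enzyme controls.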
* marks the source's active call; other numbers are inactive results; ? = inconclusive; / = not tested or not shown; & = joins results of further samples; [ ] = remark or other dose.

SMILES	gsp ag	gsp antag	Sfp inh	CtBP-E1A inh	Menin MLL FP FL	TRPV1 PAM	ClpP mod
Cc1cc(OCC(=O)OCC(=O)c2ccc[nH]2)ccc1Cl	-4%[15.4 µM]	-2%	/	-12	/	-9	/
COc1cccc(C2=NOC(C(=O)NCc3cccs3)C2)c1 (stereo not drawn)	-36%[inhibitor]	3%	9%	3	-2.1	2	-0.6%
CC(C)[C@H](NC(=O)OCc1ccccc1)C(=O)OCC(=O)Nc1c(F)cccc1F	-19%	-4%	7%	1	1.0	-18	0.3%
CCS(=O)(=O)CCSc1nc(C)cc(C)n1	26%	4%	6%	-1	-1.5	-6	-2.5%
N/C(Cc1ccc([N+](=O)[O-])cc1)=N\OC(=O)COc1ccc2ccccc2c1	?	-14%	2%	0	-1.5	-8	0.2%
Cc1ccc(S(=O)(=O)N(C)c2ccc(OC(=O)CN3C(=O)NC4(CCCC4)C3=O)cc2)cc1	-5%[15.4 µM]	1%	/	3	/	-16	/
COc1cc(CN2C(=S)NC(C)(C)CC2(C)O)cc(OC)c1 (stereo not drawn)	-11%	9%	1%	5	-0.8	9	/
Cc1sc(NC(=S)NC(=O)C2CCCCC2)c(C(N)=O)c1C	?	-6%	-12%	-5	8.1	-7	0.2%
Cc1nn(Cc2ccc(C(=O)NN)o2)c(C)c1Cl	7%	-3%	-12%	/	2.5	-19	-3.4%
Cc1nn(C)c(Cl)c1CN1CCN(CC(C)C)C(CCO)C1 (stereo not drawn)	12%	7%	12%	-4	-6.8	3	/
O=C1c2ccccc2C(Nc2ccccc2)N1c1ccc(Cl)cn1 (stereo not drawn)	-41%[inhibitor]	-15%	22%	1	-6.2	-19	-1.5%
CCN1C(=O)/C(=C\c2ccc(-c3ccc([N+](=O)[O-])cc3OC)o2)SC1=Nc1cccc(C(=O)O)c1	-7%	?	25µM*	-2	15	8	0.0%
Nc1nnc(Cc2ccc(F)cc2)s1	-22%	5%	21%	/	5.2	-6	-9.4%
CC(O)CN(C)CC/C=C1/c2ccccc2CSc2ccccc21 (stereo not drawn)	-9%	16%	-7%	-2	4.0	-8	1.8%
CN(Cc1ccco1)C(=O)c1cccc(S(=O)(=O)N2CCN(Cc3ccccc3)CC2)c1	-15%	/	/	1	/	/	-2.3%
CCOP(=O)(NC(c1ccccc1)c1nc2ccccc2[nH]c1=O)OCC (stereo not drawn)	20%[15.4 µM]	0%	9%	-7	2.2	-4	/
COC(=O)c1ccccc1NC(=S)N(Cc1ccc2c(c1)OCO2)Cc1cc2cc(OC)ccc2[nH]c1=O	0%	-20%	-1%	-7	-0.6	0	?
O=[N+]([O-])c1ccccc1/C=N/NC1=NS(=O)(=O)c2ccccc21	-48%[inhibitor]	1%	?	0	-0.7	-21	/
Cc1ccc(NC(=O)C(OC(=O)c2ccccc2Cl)c2ccccc2)cc1Cl (stereo not drawn)	-7%	-33%	30%	13	7.6	8	-1.7%
Cc1cccc(NC(=O)CN(C)S(=O)(=O)c2cnc[nH]2)c1	-26%	3%	21%	4	0.2	-5	0.7%
CCOc1ccccc1C(=O)Nc1cc(OC)ccc1OC	-25%	?	?	2	-0.3	5	-4.3%
CCOC(=O)Cc1nnc(NC(=O)C(CC)Sc2nc(C)cc(C)n2)s1 (stereo not drawn)	3%	-7%	3%	-2	-1.1	1	-1.3%
O=C(c1ccco1)N1CCN(C2CC(=O)N(c3ccc(C(F)(F)F)cc3)C2=O)CC1 (stereo not drawn)	-28%	-13%	8%	-7	/	-4	-7.0%
C=CCN(CC=C)CCOc1cccc2ccccc12	11%[15.4 µM]	-2%	-16%	3	2.1	-5	?
CC(C)N(CCCNC(=O)c1ccc(N2CCCC2=O)cc1)Cc1ccccc1	-26%	10%	9%	/	0.0	3	-0.4%
CCn1c(C)nc2cc(C(=O)NNS(=O)(=O)c3ccc(C)cc3C)ccc21	-29%	5%	5%	3	2.8	11	-3.5%
CCc1c(C)sc(NC(=O)CSc2nc3c(c(C(F)(F)F)n2)CCc2ccccc2-3)c1C#N	7%	9%	45µM*	4	7.8	-5	-0.9%
COc1ccc(CNc2ccncc2)c(OC)c1OC	-41%[inhibitor]	3%	/	6	/	/	/
CC(=O)N1CCN(c2ccc(NC(=O)c3ccc(C)c([N+](=O)[O-])c3)cc2)CC1	8%[15.4 µM]	1%	7%	-8	3.2	4	-0.1%
Cc1ccc(C(=O)NCC(=O)OCC(=O)NCC(F)(F)F)cc1	-1%[15.4 µM]	0%	17%	10	0.0	0	/

Four compounds from above, ordered by their value in gsp antag, lowest first.
| structure | gsp ag | gsp antag | Sfp inh | CtBP-E1A inh | Menin MLL FP FL |
| --- | --- | --- | --- | --- | --- |
| COC(=O)c1ccccc1NC(=S)N(Cc1ccc2c(c1)OCO2)Cc1cc2cc(OC)ccc2[nH]c1=O | 0% | -20% | -1% | -7 | -0.6 |
| O=[N+]([O-])c1ccccc1/C=N/NC1=NS(=O)(=O)c2ccccc21 | -48%[inhibitor] | 1% | ? | 0 | -0.7 |
| COc1ccc(CNc2ccncc2)c(OC)c1OC | -41%[inhibitor] | 3% | / | 6 | / |
| CCc1c(C)sc(NC(=O)CSc2nc3c(c(C(F)(F)F)n2)CCc2ccccc2-3)c1C#N | 7% | 9% | 45µM* | 4 | 7.8 |

Following part.
SMILES	gsp ag	gsp antag	Sfp inh	CtBP-E1A inh	Menin MLL FP FL	TRPV1 PAM	ClpP mod
COc1ccccc1NC(=O)N1CCCC(c2nc3c(nnn3Cc3ccc(C)cc3)c(=O)[nH]2)C1 (stereo not drawn)	-2%	-9%	-7%	-3	1.5	6	2.0%
Cc1ccc(CNCC2CCCO2)s1 (stereo not drawn)	-25%	-9%	13%	-2	-3.9	5	-4.0%
O=C(Oc1ccc(Br)cc1)C1CC(=O)N(c2ccc(F)cc2)C1 (stereo not drawn)	2%	-14%	4%	3	5.6	/	-1.7%
COc1ccc2[nH]c(C)c(CN3CCCCC3)c(=O)c2c1	-62%[inhibitor]	2%	15%	8	3.0	6	?
CCOc1ccc(CC(=O)Nc2c(C(N)=O)oc3ccc(Br)cc23)cc1OCC	-51%[inhibitor]	-3%	12%	-4	5.5	/	-7.5%
CCCN(CCC)CC(=O)N1CC(=O)Nc2ccccc21	?	-2%	9%	/	2.3	7	1.5%
Cn1c(SCC(=O)NCc2ccc3c(c2)OCO3)nnc1-c1cc2ccccc2cc1O	?	40µM*	1%	-9	6.9	/	-14%
Cc1c(C#N)c2ncn(Cc3ccccn3)c(=O)c2n1-c1ccccc1	10%	28µM*	8%	-8	3.3	-2	28µM*
Cn1c(NC(=O)c2ccc(F)cc2)c(-c2ccccn2)c(=O)c2ccccc21	10%	9%	3%	/	1.0	4	-1.0%
COc1ccc(CNC(=O)c2ccccc2[N+](=O)[O-])cc1	3%	13%	11%	6	4.8	-1	-0.1%
CC(=O)c1ccc(NC(=S)NC(=O)/C=C/c2ccco2)cc1	-5%	-10%	-19%	/	7.2	8	0.3%
COc1ccccc1-n1nc(C)cc1N	4%	12%	17%	1	-0.5	-13	/
O=C(CN1C(=O)COc2ccc(S(=O)(=O)N3CCCCCC3)cc21)NCc1ccc(F)cc1	18%	-1%	8%	1	-1.7	-31	-1.5%&0.9%
COC(=O)C1CCN(CC(=O)Nc2ccccc2Sc2ccccc2)CC1	8%	-26%	-20%	4	1.1	-16	/
COc1cc(C(=O)NCC2CCCO2)ccc1OCc1ccccc1Cl (stereo not drawn)	-6%	-7%	4%	-2	3.3	-15	-3.2%

Some entries already given, showing only ClpP mod:
canonical_smiles	ClpP mod
CCOc1ccc(CC(=O)Nc2c(C(N)=O)oc3ccc(Br)cc23)cc1OCC	-7.5%
CCCN(CCC)CC(=O)N1CC(=O)Nc2ccccc21	1.5%

Some of the entries so far, with values under each structure.
Below each compound: gsp ag, gsp antag, Sfp inh, CtBP-E1A inh, Menin MLL FP FL, TRPV1 PAM, ClpP mod
> COc1ccccc1-n1nc(C)cc1N
  4%, 12%, 17%, 1, -0.5, -13, /
> COC(=O)C1CCN(CC(=O)Nc2ccccc2Sc2ccccc2)CC1
  8%, -26%, -20%, 4, 1.1, -16, /
> COc1ccc(CNC(=O)c2ccccc2[N+](=O)[O-])cc1
  3%, 13%, 11%, 6, 4.8, -1, -0.1%

Later entries.
SMILES	gsp ag	gsp antag	Sfp inh	CtBP-E1A inh	Menin MLL FP FL	TRPV1 PAM	ClpP mod
C=CCOc1c(Br)cc(/C=N/n2c(CC)n[nH]c2=S)cc1Br	9%[15.4 µM]	-6%	79µM*	-5	7.8	18	1.4%
COc1cccc(S(=O)(=O)NCc2ccc(C(=O)Nc3ccc(C)cc3)cc2)c1	9%	-9%	6%	0	2.4	-1	-9.1%
O=C(NCc1ccc(Cl)cc1)C1CCN(c2nnc(N3CCCC3=O)s2)CC1	-32%	5%	18%	7	-9.4	-25	0.3%
COc1ccc(NC(=O)Nc2ccc3c(c2)C(=O)N([C@H](C)CO)C[C@H](C)[C@@H](CN(C)C(=O)Nc2ccc4c(c2)OCO4)O3)cc1	?	3%	/	-28	/	/	-3.2%
CC(=O)Nc1nnc(CCS(=O)(=O)c2ccc(C)c(C)c2)s1	19%	-5%	13%	/	5.2	16	-3.0%
CCOC(=O)c1c(NC(=O)Cc2cccs2)sc(C(=O)NC2CCCC2)c1C	?	6%	27%	6	4.3	-8	5.3%

Filtered by structure: those above containing bromine.
SMILES	gsp ag	gsp antag	Sfp inh	CtBP-E1A inh	Menin MLL FP FL	TRPV1 PAM	ClpP mod
O=C(Oc1ccc(Br)cc1)C1CC(=O)N(c2ccc(F)cc2)C1 (stereo not drawn)	2%	-14%	4%	3	5.6	/	-1.7%
CCOc1ccc(CC(=O)Nc2c(C(N)=O)oc3ccc(Br)cc23)cc1OCC	-51%[inhibitor]	-3%	12%	-4	5.5	/	-7.5%
C=CCOc1c(Br)cc(/C=N/n2c(CC)n[nH]c2=S)cc1Br	9%[15.4 µM]	-6%	79µM*	-5	7.8	18	1.4%
